ClpP mod – qHTS Assay for Activators of ClpP | AID 651965, 2013 | ATP-dependent Clp protease proteolytic subunit (Bacillus subtilis (strain 168)), P80244 | 1.9% of 340,000 active | Potency, µM (doses to about 57.5 µM), for inactives: top-dose activity change, negative = active | purified B. subtilis ClpP, FRET peptide cleavage, 20 min; active = well fitted falling curve with a large enough effect; inconclusive = small, poorly fitted or top-dose-only effect; inactive = no such curve, though single readings can be large or run the other way; note: potency is the fitted concentration of half-maximal effect; the source files actives as falling curves though it sought activators and does not explain the sign; nearly all actives have a fitted effect of over 65% in size; many hits overshoot -100%
Target sequence (P80244 whole entry, looked up): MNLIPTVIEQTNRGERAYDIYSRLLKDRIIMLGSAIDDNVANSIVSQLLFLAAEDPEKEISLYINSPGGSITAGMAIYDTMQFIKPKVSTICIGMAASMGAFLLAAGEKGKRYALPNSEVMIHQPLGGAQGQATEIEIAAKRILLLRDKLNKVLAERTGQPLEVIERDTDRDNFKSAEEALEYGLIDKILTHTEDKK
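FRET quenching reversal measured ClpP activation: 10 microg/mL B. subtilis ClpP at pH 8 with the FRET-FV decapeptide, read at 430 nm after 320 nm excitation. The 20-min minus 0-min signal was scaled between DMSO/no-enzyme wells and ADEP (5.8 microM final).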
gsp antag – gsp mutant antagonism | AID 624288 | gsp-mutant cells, cAMP HTRF, 30 min; control for the full effect not named in the record | 0.4% of 340,000 active | Potency, µM (highest dose often 76.9 µM), for the others: top-dose activity change, negative = inhibition, hits mostly inhibitors; active = falling curve of any shape with a large fitted effect; inconclusive = falling curve, mostly with a smaller effect; inactive = flat or rising curve; cell line not stated here;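 note: intracellular cAMP measured with PDE inhibitor Ro 20-1724 present during compound exposure; potency is the fitted concentration of half-maximal effect; % is set by controls: 0 for no effect and ±100 for the full control effect; nearly all actives have a fitted effect of over 65% in size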
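HTRF cAMP measurement after 30 min RT detection following 30 min, 37C compound treatment alongside […] (added as 300 uM solution) in G418-selected cells seeded at 2000/well and grown 16–24 h.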
TRPML1 ag – activates the human TRPML1 channel. TRPML1-expressing cells, Ca2+ dye fluorescence, FDSS; host cell line not named in the record; reference of the full effect not given here. activation, % (test concentration not listed). 0.12% of 410,000 active; in the data active = activation above about 50%; inconclusive = about 30% to 50%; inactive = below about 30%; note: 0% is about no effect; the text of the record puts the active cut at 80%
Target sequence (Q9GZU1 whole entry, looked up): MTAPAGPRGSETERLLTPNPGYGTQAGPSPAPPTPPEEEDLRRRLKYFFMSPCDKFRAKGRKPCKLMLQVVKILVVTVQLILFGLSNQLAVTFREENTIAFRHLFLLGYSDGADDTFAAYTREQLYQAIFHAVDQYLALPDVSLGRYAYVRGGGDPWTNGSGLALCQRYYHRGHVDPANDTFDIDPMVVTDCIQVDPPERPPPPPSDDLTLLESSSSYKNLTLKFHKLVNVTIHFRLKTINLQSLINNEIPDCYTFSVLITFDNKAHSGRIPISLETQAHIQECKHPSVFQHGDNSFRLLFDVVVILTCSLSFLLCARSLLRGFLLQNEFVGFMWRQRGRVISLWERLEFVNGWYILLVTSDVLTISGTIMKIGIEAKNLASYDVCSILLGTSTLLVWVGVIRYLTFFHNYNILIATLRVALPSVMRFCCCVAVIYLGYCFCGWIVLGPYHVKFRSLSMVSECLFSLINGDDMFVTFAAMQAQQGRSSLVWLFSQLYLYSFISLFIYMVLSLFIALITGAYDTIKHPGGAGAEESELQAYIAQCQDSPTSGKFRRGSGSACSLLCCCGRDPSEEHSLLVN
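In this qHTS format, compounds were pin-transferred onto Ca8-dye-loaded TRPML1-DL cells induced with Tet overnight, and intracellular Ca2+ fluorescence was recorded kinetically for 110 s after a 10 s baseline. A subsequent 4uM final 54-4 (EC80) addition followed by a second 110 s read served as the antagonist phase.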
TRPML1 inh – human mucolipin-1 channel inhibition. TRPML1-inducible cells, Ca2+ dye fluorescence, FDSS; stronger effect = lower value; inhibition of EC80 agonist-evoked calcium signal. AID 624415. 0.02% of 390,000 active. activity change, negative = inhibition, % (test concentration not listed); in the data active means activity change below about -50%; inconclusive means about -30% to -50%; inactive means above about -30%;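 note: stimulus is agonist 54-4 at its EC80 concentration; % is set by controls: 0 for no effect and ±100 for the full control effect; compound concentration not given in the record; the text of the record puts the active cut at -80%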
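TRPML1-DL cells, Tet-induced overnight (~16 h, 37 °C) at 1,500 cells/well, were loaded with Ca8 no-wash dye plus quencher for 45-90 min at room temperature. Compounds were pinned during FDSS kinetic reading; agonist 54-4 at EC80 (4 uM final) then added.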
Menin-MLL FL inh – inhibitors of human menin-MLL interaction, wild-type MLL peptide | Fluorescence polarization, fluorescein-MLL peptide displacement from menin | FP activity change, % at 61.4 µM | 290,000 tested, under 10 active; inconclusive = falling polarisation curve, or a change in total fluorescence; inactive = total fluorescence flat and polarisation flat or rising; no compound was filed as active; the % refers to the polarisation; negative = inhibition;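 note: % of control where 0% means no effect; inhibitors lower the polarisation; unlabelled MLL peptide was the positive control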
gsp agonist – gsp mutant agonism; 0.13% of 340,000 active; Potency, µM (highest dose often 76.9 µM), inactives show at the top dose activation (cAMP increase), hits mostly activators; gsp mutant cells, cAMP HTRF, 30 min; control for the full effect not named in the record; active = well fitted activation curve with a large enough effect; inconclusive = small, poorly fitted or top-dose-only effect, or another doubt; inactive = no such curve, though single readings can be large or run the other way; cell line not stated here;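 note: phosphodiesterase inhibitor Ro 20-1724 added with compounds to block cAMP breakdown; potency is the fitted concentration of half-maximal effect; nearly all actives have a fitted effect of over 60% in size; about a fifth of the inactives were tested at one dose only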
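Cells in DMEM/10% FBS with G418 were pretreated with compounds in DMSO plus […] (300 uM stock) for 30 min at 37C. cAMP was measured by HTRF (cAMP-d2 plus anti-cAMP antibody-K) after 30 min at room temperature.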
* hit, by the source's call; ? = inconclusive; nt = no result given; & = joins results of further samples; [ ] = remark or other dose. Random draw from the library. Share with any hit: about 2.1%.

SMILES	ClpP mod	gsp antag	TRPML1 ag	TRPML1 inh	Menin-MLL FL inh	gsp agonist
Cc1ccccc1NC(=O)CSc1nnc(CNC(=O)c2ccc3c(c2)OCO3)n1C	nt	10.6%	-0.3	-11.3	2.4	-0.1%[15.4 µM]
CCN(CC)S(=O)(=O)c1ccc(N2CCCC2)c(C(=O)Nc2ccc(OC)c(Cl)c2)c1	?	-12.9%	1.1	28.2	2.2	-0.2%
CCC(Oc1ccc(C)c(C)c1)C(=O)O (stereo not drawn)	-1.2%	3.8%	0.0	-7.1	1.4	-11.1%
CCc1cccc(NC(=O)C2CCC(CNS(=O)(=O)c3ccc(Br)s3)CC2)c1 (stereo not drawn)	2.0%	nt	3.0	2.3	nt	nt
COC(=O)Cc1ccc(OCc2ccc(Cl)nc2)cc1	-3.2%	-9.3%	1.1	60.7	0.7	5.5%[15.4 µM]
CN1CCC(N(C)C(=O)Cc2ccccc2[N+](=O)[O-])CC1	nt	8.2%	0.9	21.9	-1.4	?
COc1cc(C(=O)N(Cc2ccc(F)cc2)C2CCS(=O)(=O)C2)cc(OC)c1OC (stereo not drawn)	-1.9%	-6.1%	0.2	-20.0	-0.4	23.8%
CCOC(=O)N1CCC(N(CCN(C)C)C(=S)Nc2cccc(Cl)c2C)CC1	-1.6%	-16.9%	-0.6	-7.3	7.8	-30.5%[inhibitor]
CCn1cc(Cl)c(C(=O)Nc2nc3ccccc3n2CCN2CCCCC2)n1	-5.3%	6.3%	-0.7	0.7	2.0	22.6%
COc1cc(CN(C(=O)c2cc3ccccc3oc2=O)C2CCS(=O)(=O)C2)cc(OC)c1OC (stereo not drawn)	-1.7%&-8.4%	-12.2%	-0.8&0.3	11.8&11.7	4.1	12.9%
Cc1cc(C(=O)N2CCCC2C(=O)O)c(C)o1 (stereo not drawn)	-2.0%	9.0%	0.5	25.9	-4.1	-25.0%
CCOc1ccc2nc(N3CCOCC3)nc(C)c2c1	?	11.0%	0.1	-9.0	-1.2	3.5%
O=C(NCCc1ccccc1)c1ccc(Cn2c(SCc3ccccc3F)nc3cccnc32)cc1	4.8%	nt	5.9	33.7	nt	nt
CCN(CC)C(=O)C1=C(C)N(CCC2=CCCCC2)C(=O)C(CC(=O)NCCCN(C)C)C1 (stereo not drawn)	-0.9%	nt	0.0	2.8	nt	-46.0%[inhibitor]
CCOc1ccccc1-n1c(SCC(=O)NC)nnc1-c1ccco1	-8.7%	2.6%	0.2	19.6	-0.6	6.0%
CC(C)c1nnc(NC(=O)C2CCCCC2)s1	-0.3%	7.5%	0.2	-10.3	-0.2	?
COc1ccc(CCN2C(=O)CC(NCc3ccc4c(c3)OCO4)C2=O)cc1OC (stereo not drawn)	-1.3%	-5.5%	0.9	8.8	-1.7	-3.6%
N#Cc1c(N)n(CCc2ccc(F)cc2)c2nc3ccccc3nc12	31.6µM*	-10.8%	-1.2	11.1	7.3	-1.9%
CN(C(=O)COC(=O)c1cc(-c2ccccc2Cl)nc2ccccc12)C1CCS(=O)(=O)C1 (stereo not drawn)	-12.5%	-2.2%	-0.3	-10.2	2.2	3.4%
CN1CCN(C(=O)c2ccc(C(F)(F)F)cc2)CC1	-1.1%	3.5%	-0.2	-7.4	4.3	9.5%
O=C(Nc1sc2c(c1C(=O)O)CCC2)c1ccccc1	-3.8%	22.4µM*	0.4	10.7	1.7	2.5%
COc1ccc(NC(=O)[C@@H]2CCCN2S(=O)(=O)c2cccc3cccnc23)cc1	1.8%	-5.8%	-0.3	-17.7	nt	nt
CCc1ccc(NC(=O)CSC2=Nc3ccccc3C3=NC(CC(=O)NCc4ccc5c(c4)OCO5)C(=O)N23)cc1 (stereo not drawn)	-4.9%	nt	0.3	-7.5	nt	nt
O=C(CNC(=O)c1ccccc1)OCC(=O)c1ccccc1Cl	0.7%	-3.6%	1.3	31.0	nt	-34.2%[inhibitor]
CC1Cc2ccccc2N1C(=O)COC(=O)c1c2c(nc3ccccc13)CCCCC2 (stereo not drawn)	-4.1%	-9.4%	1.6	-3.9	2.0	-21.3%
COc1cc(NC(=O)c2ccc(S(=O)(=O)N(C)C)cc2)cc(OC)c1OC	0.3%	-3.3%	0.4	-12.0	1.9	22.4%
COc1ccc(C(=O)N(CN2CCCC2=O)c2cc(C)on2)cc1OC	0.9%	11.6%	-0.6	5.6	-0.6	-0.4%
COC(=O)C(Cc1ccccc1)NC(=O)COc1ccc(C(C)(C)C)cc1 (stereo not drawn)	1.5%	-9.9%	-0.3	-4.5	3.5	1.7%
COc1ccc(-n2nc3c(c2NC(=O)C(C)Cl)CSC3)cc1 (stereo not drawn)	0.7%	-2.4%	-0.9	11.9	3.9	0.8%
CC(C)N1CC23C=CC(O2)C(C(=O)OCc2ccccc2)C3C1=O (stereo not drawn)	-3.2%	13.9%	1.0	-4.8	-3.6	?
Cc1ccccc1NC(=S)NCc1ccc(F)cc1	nt	11.8%	-0.6	-2.9	-1.9	-81.5%[inhibitor]
Cc1ccc(-n2c(O)c(C=Nc3ccc4c(c3)OCO4)c3ccccc3c2=O)cc1C	0.8%	-3.9%	4.7	6.9	?	2.1%
Nn1c(SCCOc2ccccc2)nnc1-c1cccnc1	-2.7%	3.0%	-0.4	-9.5	5.5	-13.7%
CC(C)(CC(=O)O)CC(=O)Nc1cc(C(F)(F)F)cc(C(F)(F)F)c1	nt	-13.6%	0.9	19.1	0.5	-11.2%[15.4 µM]
COc1cccc(C2C3=C(CC(C)(C)CC3=O)OC(N)=C2[N+](=O)[O-])c1 (stereo not drawn)	-7.5%	1.4%	2.0	5.3	-3.5	-0.8%
c1ccc(Cc2nnc(N3CCOCC3)c3ccccc23)cc1	1.1%	-4.3%	-0.8	1.6	-1.2	7.9%
O=C(N/N=C/c1cn(Cc2ccccc2)c2ccccc12)c1cc(O)cc(O)c1	-6.4%	18.9%	-0.6	-2.6	-1.6	-7.1%
CCOC(=O)c1c(C)oc2c1c1c(c3ccccc32)OCN(CCCC(=O)O)C1	-13.5%	?	1.8	3.5	1.0	-3.9%
O=C(CCC(=O)NC12CC3CC(CC(C3)C1)C2)NC1CCCCC1	0.1%	4.4%	0.1	11.0	-2.3	9.0%
CCC(=O)Nc1nc(NCc2ccccc2OC)n(-c2ccccc2)n1	0.6%	-16.1%	1.6	-24.4	1.7	0.3%
Cc1cc(C(=O)CSc2nc3ccccc3o2)c(C)n1C1CC1	-2.0%	?	0.3	-11.9	-1.3	?
CC(=O)c1cccc(OCC(=O)N2CCN(c3ccc(C(F)(F)F)cn3)CC2)c1	-20.2%	-11.3%	0.9	-10.2	0.8	1.3%
O=C(CSc1ccc2nnc(-c3cccc(F)c3)n2n1)N1CCCc2ccccc21	-9.5%	9.2%	0.1	?	1.2	-2.6%
O=C(NCc1ccc(CNC(=O)c2ccco2)cc1)c1ccco1	0.0%	14.9%	-0.3	8.8	nt	20.8%
COc1ccc(Br)cc1/C(C)=N/NC1=NCCN1	1.8%	7.4%	-0.5	3.0	-0.6	-13.0%
COc1cccc(NC(=O)Nc2cccc(-c3cn4cccnc4n3)c2)c1	-18.7%	nt	3.5	-11.0	nt	nt
CCc1nc(NCCN2CCOCC2)c2oc3ccccc3c2n1	21.2%	1.9%	-0.5	15.5	2.4	-37.8%[inhibitor]
O=c1c(Cl)c(NC2CC2)cnn1-c1ccccc1	0.4%	10.3%	-1.1	-21.1	-0.1	-6.8%[15.4 µM]
C=CCN=C1S/C(=C\N(C)C)C(=O)N1S(=O)(=O)c1ccc(C)cc1	-0.2%	-3.7%	-0.8	4.8	nt	-14.2%
Cc1nccn1CCCNC(=O)CC1C(=O)NCCN1Cc1ccc(F)cc1Cl (stereo not drawn)	?	12.3%	-0.5	4.6	nt	-28.6%
CC1(C(=O)NS(=O)(=O)c2ccc(Cl)cc2)CCN1C(=O)Cc1ccc(Cl)cc1Cl (stereo not drawn)	0.9%	nt	0.2	19.3	nt	nt
CCOC(=O)C1=CCN(S(=O)(=O)c2ccc(C)cc2)C1c1ccc(C)cc1 (stereo not drawn)	0.4%	nt	2.1	16.6	nt	nt
COc1ccc(C(=O)CC(=O)C(=O)Nc2cc(Cl)c(OC)cc2OC)cc1	1.4%	1.7%	-0.7	-12.1	9.4	1.6%
CCCCn1c(C)cc2cc(O)ccc21	-10.7%	5.6%	2.3	-1.3	?	-56.0%[inhibitor]
CN(C)S(=O)(=O)N1CCCC(C(=O)c2ccc(-c3ccccc3)cc2)C1 (stereo not drawn)	1.1%	-3.6%	-0.7	17.6	1.3	-19.5%[15.4 µM]
C[C@@H]1COC(=O)[C@H](CC(=O)OC(C)(C)C)C/C=C\C[C@@H](CC(=O)N[C@H](CO)Cc2ccccc2)C(=O)N1	-8.4%	8.0%	-0.6	-2.8	nt	?
O=C(NNC(=O)c1cc(Br)c(Br)s1)c1csc(N2CCOCC2)n1	-0.8%	-3.8%	-1.3	-1.4	nt	8.6%
CCn1cc(C(=O)NCCCN(CC(C)C)CC(C)C)c(=O)c2cc(S(=O)(=O)N(C)C3CCCCC3)ccc21	1.3%&3.8%	-0.2%	-0.1&-0.7	-1.4&42.8	6.1	-15.8%
Oc1ccc(/C=N/Nc2nccnc2Cl)c(O)c1	-2.8%	0.8%	-0.5	23.3	-4.3	3.0%
Cc1ccc(CNC(=O)CSc2ncc(S(=O)(=O)c3ccc(C)c(Cl)c3)c(=O)[nH]2)cc1	-0.2%	nt	0.9	-17.0	nt	nt

Next structures follow:
SMILES	ClpP mod	gsp antag	TRPML1 ag	TRPML1 inh	Menin-MLL FL inh	gsp agonist
Cc1ccc(C)c(NC(=O)c2cc(-c3cccnc3)nc3ccccc23)c1	-0.2%	?	-0.5	-12.5	1.3	-8.1%
c1csc(-c2ccc3ccccc3n2)c1	14.1µM*	0.7%[15.4 µM]	0.1	-3.9	-0.2	-17.4%
COc1ccc(OC)c(S(=O)(=O)N2CCC(C(=O)NCc3cccnc3)CC2)c1	nt	5.2%	0.3	-16.1	4.2	-33.0%[inhibitor]
CCOC(=O)c1c(S(=O)(=O)NCc2ccc(OC)cc2)c(C)n(C)c1C	0.0%	15.3%	-0.1	8.7	-1.9	14.9%
O=C(OCC(=O)N1CCCC1=O)c1ccc(O)cc1O	-11.4%	4.5%	0.3	17.1	nt	11.7%[15.4 µM]
COc1ccccc1N1CCN(C(=O)c2cc3c(=O)n(Cc4ccco4)ccc3nc2C)CC1	-15.4%	nt	0.8	20.5	nt	nt
Cc1ccc(OCC(=O)NNC(=O)c2ccc(F)c(S(=O)(=O)N3CCOCC3)c2)cc1C	0.7%	nt	-0.3	-5.8	nt	11.5%
Cc1ccc(S(=O)(=O)NC(N)=NCCc2ccccc2)cc1C	-3.1%	-11.7%	1.0	17.7	?	5.7%
N/C(=N\N=C/c1ccc(Br)cc1)N/N=C\c1ccc(Br)cc1	0.9%	-20.9%	0.7	-17.6	1.6	-9.6%[15.4 µM]
